From PubChem
HPGD inh = blocks human HPGD enzyme activity. Potency, µM, for the others: at the top dose activity change, negative = inhibition, actives largely listed as inhibitors. P15428. hit rate 4.3% among 150,000. purified HPGD, NADH fluorescence kinetic, PGE2 substrate; active = well fitted inhibition curve with a large enough effect (not every such curve was filed as active); inconclusive = small, poorly fitted or top-dose-only effect, or another doubt; inactive = no such curve, though single readings can be large or run the other way;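 also: top concentration of the series not given in the record; plate controls included wells without enzyme; inactives centre near -10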
Target sequence (P15428 whole entry, looked up): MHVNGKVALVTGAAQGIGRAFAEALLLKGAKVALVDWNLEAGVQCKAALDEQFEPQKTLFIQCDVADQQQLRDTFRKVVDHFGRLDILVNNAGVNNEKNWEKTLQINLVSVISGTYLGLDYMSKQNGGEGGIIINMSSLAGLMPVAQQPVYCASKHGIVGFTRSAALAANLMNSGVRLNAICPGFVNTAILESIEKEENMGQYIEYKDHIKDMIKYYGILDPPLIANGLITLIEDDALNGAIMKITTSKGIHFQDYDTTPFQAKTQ
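20 nM HPGD preincubated 15 min at room temperature with compound in 50 mM Tris-HCl pH 8, 0.01% Tween 20. Started with 1 mM NAD+ and 30 uM prostaglandin E2; NADH fluorescence (360/450 nm) read 5 times over 30-s intervals, last minus first.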
* = called active by the depositor; ? = inconclusive; & = joins results of further samples. % is scaled to controls: 0 for no effect and ±100 for the full control effect; potency is read from the fitted curve at half-maximal effect. A portion of the library, so the mix of outcomes need not match the whole.

SMILES	HPGD inh
CCOC(=O)C1CCCN(c2nc3ccccc3nc2C(C#N)C(=O)NCc2ccccc2)C1 (centres undefined)	-14%
Cc1c(C(=O)N/N=C/c2ccc(O)c(Br)c2)sc(N)c1C#N	?
O=C(Cn1ncc2c(=O)oc3ccccc3c21)NCCc1ccsc1	-13%
CCCCn1c(SCC(=O)c2ccc(OC)cc2OC)nc2cc(S(N)(=O)=O)ccc21	-7%
CCNC(=O)c1sc(-c2ccccc2)nc1C	?
CC(C)(C)N1C(=O)c2ccc(C(=O)Nc3ccc(-c4nc5ccccc5[nH]4)cc3)cc2C1=O	-21%
O=C1CC(c2ccccc2)n2nc(NC(=O)c3ccccc3)nc2N1 (centres undefined)	-13%
Cc1ccc(S(=O)(=O)N[C@H](C(=O)Oc2ccc3c(C(F)(F)F)cc(=O)oc3c2)c2ccccc2)cc1	?
COc1cc(-c2nnc(-c3cccs3)o2)cc(OC)c1OC	?
CC(=O)c1c(C)[nH]c(C(=O)OCC(=O)Nc2cc(C(F)(F)F)ccc2N2CCOCC2)c1C	-7%
COc1ccccc1N(CC(=O)Nc1ccc2c(c1)OCCO2)S(C)(=O)=O	-9%
CC(=O)c1oc2ccccc2c1NC(=O)COC(=O)c1ccc(-n2nc(C)cc2C)cc1	-27%
c1cc(CNc2ccc3c(c2)OCO3)ccn1	-25%
COc1cc(OC)c(NC(=O)CC(C)=O)cc1Cl	-8%
Cc1cc(NC(=O)COC(=O)COc2ccc(C(=O)c3ccccc3)cc2)no1	-5%
Cc1noc(C)c1S(=O)(=O)N(CC(=O)N1CCCC1)c1ccc(C(C)C)cc1	3%
CCOc1ccc(S(=O)(=O)Nc2ccccc2C(=O)NCC2CCCO2)cc1 (centres undefined)	?
O=C(CN1CCN(c2ccc(F)cc2)CC1)N1CCC(Cc2ccccc2)CC1	-5%
O=C(Oc1ccc2c(c1)C(=O)c1ccccc1CO2)c1ccccc1	-10%
Cc1ccc(NC2c3ccccc3C(=O)N2CCN2CCOCC2)cc1 (centres undefined)	-6%
OCC1O[C@@H](OC2C(O)C(CO)O[C@@]2(CO)O[C@@H]2OC(CO)C(O)C(O)C2O)C(O)C(O)C1O (some centres undefined)	-6%
COc1ccc(Cl)c(N2CCN(CCCNC(=O)Nc3ccc(C)cc3)CC2)c1	-2%
COc1ccc(NC(=O)c2ccc3nccnc3c2)cc1	-17%
c1ccc(C(c2ccccc2)N2CCN(Cc3nnnn3C3CCCCC3)CC2)cc1	-5%
COc1cc2cc(C(c3nnnn3C3CCCC3)N(C)C3CCCCC3)c(=O)[nH]c2cc1OC (centres undefined)	?

7 entries from above, with bars between the fields.
SMILES | HPGD inh
OCC1O[C@@H](OC2C(O)C(CO)O[C@@]2(CO)O[C@@H]2OC(CO)C(O)C(O)C2O)C(O)C(O)C1O (some centres undefined) | -6%
COc1cc(-c2nnc(-c3cccs3)o2)cc(OC)c1OC | ?
O=C(Cn1ncc2c(=O)oc3ccccc3c21)NCCc1ccsc1 | -13%
COc1ccccc1N(CC(=O)Nc1ccc2c(c1)OCCO2)S(C)(=O)=O | -9%
CC(C)(C)N1C(=O)c2ccc(C(=O)Nc3ccc(-c4nc5ccccc5[nH]4)cc3)cc2C1=O | -21%
CCNC(=O)c1sc(-c2ccccc2)nc1C | ?
c1cc(CNc2ccc3c(c2)OCO3)ccn1 | -25%

The results go on.
SMILES	HPGD inh
O=C1c2ccccc2C(=O)N1CCSC(=S)N1CCOCC1	-19%
CNC(=O)[C@@H]1C[C@H]1[C@@H](NC(=O)OCc1ccccc1)c1ccccc1	-6%&-7%
CCOC(=O)C(Sc1cc(C)nc(N)n1)C(C)=O (centres undefined)	-10%
CCN1C2=C(C(=O)CCC2)C(c2ccc(O)cc2)C2=C1CCCC2=O	-5%
Cc1nc2ccc(NC(=O)CCS(=O)(=O)c3ccc(Cl)cc3)cc2s1	-12%
S=C(NCCc1ccccc1)N/N=C/c1ccccc1Cl	-20%
CCC1(C)Cc2c(sc3nnn(CC(=O)Nc4ccc(Cl)cc4)c(=O)c23)CO1 (centres undefined)	-6%
N#Cc1cccc(NC(=O)CSc2ccccc2)c1	-5%
CCCCCNc1c(C(=O)OCC)c(=O)[nH]c2ccccc12	-1%
CCN(CC)CCCNC(=O)C1CCN(C(=O)c2cc3sccc3n2Cc2ccc(F)cc2)CC1	2%
O=C(CSc1nnnn1-c1ccccc1)Nc1ncc(Cc2ccccc2Cl)s1	-1%
Cn1c(O)c(N=NC(=O)c2cc(-c3cccs3)nc3ccccc23)c2ccccc21	-12%
Cc1ccc(S(=O)(=O)Cc2ccc(C(=O)NCc3cccs3)o2)cc1	-16%
Cc1ccc(S(=O)(=O)c2ccc(Cl)cc2)cc1S(=O)(=O)NC(C)C(=O)O (centres undefined)	1%
O=C(CCC1CCCC1)Nc1ccc([N+](=O)[O-])cn1	-4%
O=C1CC(N2CCC(c3nc4ccccc4o3)CC2)C(=O)N1Cc1cccs1 (centres undefined)	3%
COc1ccccc1NC(=O)Cn1cnc2sc(C(=O)NCc3ccco3)c(C)c2c1=O	-15%
Cc1ccc(C2CC(=O)Nc3c2ccc2ccccc32)cc1[N+](=O)[O-] (centres undefined)	-16%
COc1cccc(Oc2ccc(N/C=C/C(=O)C(C)(C)C)cc2)c1	-26%
CC/C(=N\NC(=O)c1ccc(CN(C)S(=O)(=O)c2ccc(C)cc2)cc1)c1ccc(OC(F)F)cc1	-7%
Nc1n[nH]c(-c2ccccc2)n1	-18%
CCOc1ccccc1N1CSC2=C(C#N)C(c3c(OC)ccc4ccccc34)CC(=O)N2C1 (centres undefined)	7.1µM*
CCCNS(=O)(=O)c1ccc(OCC(=O)N2CCC(C(=O)OCC)CC2)cc1	-11%
COc1cc2c(cc1OC)C(c1ccccc1F)OC(=O)C2 (centres undefined)	-6%
COc1ccc(NC(=O)N2CCN(c3cccc(C(F)(F)F)c3)CC2)cc1	20%

Single values from the list.
Reading of CNC(=O)[C@@H]1C[C@H]1[C@@H](NC(=O)OCc1ccccc1)c1ccccc1 in HPGD inh: -6%&-7%
Reading of COc1ccccc1NC(=O)Cn1cnc2sc(C(=O)NCc3ccco3)c(C)c2c1=O in HPGD inh: -15%
Reading of CCCCCNc1c(C(=O)OCC)c(=O)[nH]c2ccccc12 in HPGD inh: -1%
Reading of CCN1C2=C(C(=O)CCC2)C(c2ccc(O)cc2)C2=C1CCCC2=O in HPGD inh: -5%

Continued.
SMILES	HPGD inh
O=C(Nc1c(C(=O)C2CC2)oc2ccccc12)c1ccc(Cl)cc1	-29%
CCCCOc1ccc(C2CC(=O)N(C)C2=O)cc1 (centres undefined)	-24%
CCOc1ccccc1Nc1nc2ccccc2n2cnnc12	?
Cn1c(=O)[nH]c(=O)c2c1nc(Sc1nc3ccccc3s1)n2Cc1ccccc1	-4%
COc1ccc(CNS(=O)(=O)c2cccc(S(=O)(=O)N3CCOCC3)c2)cc1	-5%
COc1ccc(/C=C/C(=O)Nc2c(C)nn(C)c2C)cc1COc1ccc(Br)cc1	-8%
CCOC(=O)CSc1nnc(CNC(=O)c2cccs2)n1-c1ccccc1	-7%
Cc1cc(C)c2oc(=O)cc(CN3CCN(Cc4ccc5c(c4)OCO5)CC3)c2c1	-6%
O=C(Nc1nccs1)C1CC2CCC1C2 (centres undefined)	-17%
Cc1ccc2c(CN3CCN(Cc4ccc5c(c4)OCO5)CC3)cc(=O)oc2c1C	-18%
CCc1nnc(NC(=O)CSc2nc(-c3ccccc3)c(-c3ccccc3)o2)s1	-14%
O=C(Nc1cccc2c1CCCC2)c1ccc(Cl)c([N+](=O)[O-])c1	-12%
CC(C)C(C(=O)N1CCOCC1)N1C(=O)c2ccccc2C1=O (centres undefined)	-6%
Cc1cccc(NC(=S)N=Nc2c(O)[nH]c3ccccc23)c1	-15%
OC1CCN(Cc2cccc(Oc3ccccc3)c2)CC1	-5%
CN1/C(=C\C(=O)Nc2cccnc2)c2ccccc2CC1(C)C	-15%
CC(C)CN1C(=O)/C(=C/c2cccs2)NC1=S	-22%
Cc1sc(NC(=O)c2ccc(F)cc2)c(CN2CCCCCC2)c1C	-25%
CCOC(=O)N1CCC(NC(=O)C2CCCN(C(=O)c3cc4sccc4n3C)C2)CC1 (centres undefined)	-2%
Cn1nnnc1SCC(=O)N1c2ccccc2CCc2ccccc21	4%
CCCn1c(SCC(=O)c2cc(OC)ccc2OC)nnc1-c1ccco1	-10%
CN1CCN(S(=O)(=O)c2ccc(NC(=S)NC(=O)C3CC3)cc2)CC1	4%
CC(=O)N1CCC(N2CCN(c3ccccc3F)CC2)CC1	0%
CC(C)c1nc(N2CCCC2)c(C#N)c2c1CCCC2	?
O=C(NCc1ccccn1)c1cc2ccccn2n1	-30%

Carrying on:
SMILES	HPGD inh
NC(=O)CC(O)c1cccc(Cl)c1 (centres undefined)	-6%
CC1=C(C(=O)OC(C)C)C(c2cccs2)C2=C(CCCC2=O)N1 (centres undefined)	-16%
CCN(CC)C(=O)Cn1cc(/C=C(\C#N)C(=O)N2CCN(c3ccccc3)CC2)c2ccccc21	-18%
CCOC(=O)C1=C(C)NC(c2cccs2)C(=O)N1 (centres undefined)	-8%
CCCCCCc1cc2cc(C(N)=O)c(=N)oc2cc1O	?
C[N+](C)(C)CCOP(=O)(O)OP(=O)([O-])OC[C@H]1O[C@@H](n2ccc(N)nc2=O)[C@H](O)[C@@H]1O	2%
Cc1nc2nc[nH]n2c(=O)c1NC(=O)c1c(-c2ccccc2Cl)noc1C	-8%
O=C(Cn1cc(-c2nnnn2-c2ccc(Cl)cc2)c(=O)c2ccccc21)c1ccccc1	-13%
CCCn1nnnc1NC(=O)COc1ccc(CC)cc1	-14%
COC(=O)C1=C(C(=O)OC)[C@@H]2N(C)c3ccccc3[C@@]23C[C@@H](C(=O)OC)N(S(=O)(=O)c2ccc4c(c2)OCCN4C)C3=N1	-20%
COc1ccc(S(=O)(=O)N2CCCN(CC(=O)Nc3cc(NC(C)=O)ccc3OC)CC2)cc1	-6%
COC(=O)[C@@]1(Cc2ccccc2)[C@H]2c3cc(C(=O)N(C)C)n(CCO)c3C[C@H]2CN1C(=O)c1ccccc1	-4%
O=C(OCC(=O)N(Cc1ccccc1)C1CCS(=O)(=O)C1)c1cc2c(s1)CCCC2 (centres undefined)	-13%
CC(C)Oc1ccc(C(=O)NC2CCCCC2)cc1	?
O=C1Nc2cccnc2Sc2ccccc21	-27%
CCOC(=O)C1=C(C)NC(=O)NC1/C(C)=C/c1ccccc1 (centres undefined)	1%
COc1cc(OC)nc(NC(=O)COC(=O)C2CCCCC2)n1	-11%
CCCOC(=S)N/C(=N\S(=O)(=O)c1ccccc1)c1ccccc1	28µM*
COc1ccc(-c2noc(CCC(=O)Nc3cc(Cl)c(OC)cc3OC)n2)cc1	-18%
CC(=O)Nc1ccc(NC(=S)NC(=O)c2ccc([N+](=O)[O-])c(C)c2)cc1	-22%
CCOC(=O)C1=C(C)N(C)C(=S)NC1c1ccc(Cl)cc1 (centres undefined)	-4%
O=C(COC(=O)COc1ccc(Cl)cc1)NC1CCCCC1	-18%
CCOC(=O)c1c(C)[nH]c(C)c1C(=O)COC(=O)c1cccc(C)c1O	-9%
Cc1csc(SCC(=O)N2CCCC2)n1	-18%
COc1ccc(Cl)cc1S(=O)(=O)N1CCN(C)CC1	-9%

Later entries
SMILES	HPGD inh
N#CCCSCc1ccc(C(=O)O)o1	-10%
CCC(C(=O)NCCCc1ccccc1)c1ccccc1 (centres undefined)	-12%
O=C1C2CCCN2C(c2ccccc2)N1c1ccc(Cl)cc1 (centres undefined)	4%
COc1ccc(S(=O)(=O)Nc2cc(OC)c(NC(=O)c3ccco3)cc2OC)cc1	-6%
COc1ccc(OC)c(S(=O)(=O)n2ccnc2C)c1	-6%
O=C(CN1C(=O)c2ccccc2S1(=O)=O)N1CCN(c2ccccc2F)CC1	-14%
COC(=O)C1CCN(C(=O)NC2CCCCC2)CC1	-6%
FC(F)(F)c1nc(SCc2ccc(Cl)cc2)n[nH]1	-10%
O=C(Nc1ccc2c(c1)OCCO2)c1c(F)cccc1F	-16%
CCn1c(SCC(=O)N2CCN(c3ccc(F)cc3)CC2)nnc1-c1ccncc1	-5%
O=C(COc1cc(Cl)ccc1Cl)Nc1nnc(CC(=O)N2CCOCC2)s1	0%
COC(=O)CSc1nc2c(c(=O)n(C)c(=O)n2C)n1CCCc1ccccc1	-2%
COc1ccc2c(c1)O[C@@H](c1ccc3c(c1)OCO3)[C@H](OC(=O)Nc1ccc(OC(F)F)cc1)C2=O	-3%
CNC(=S)N/N=C/c1cn(CCOc2ccc(OC)cc2)c2ccccc12	-27%
CC(=O)n1nc(-c2cccnc2)nc1N	-12%
CCN(CC)S(=O)(=O)N1CCC(C(=O)NC2CCCc3ccccc32)CC1 (centres undefined)	-13%
COc1ccc(-n2c(=O)cc(N3CCN(c4ccccc4F)CC3)[nH]c2=O)cc1	2%
CCn1c(SCC(=O)N2CCCCC2C)nc2ccsc2c1=O (centres undefined)	?
CCC(CC)C(=O)Nc1cccc(/C(C)=N/NC(=O)c2ccccc2Cl)c1	-22%
CCOc1ccc(CNc2nc3ccccc3n2CCN2CCOCC2)cc1	-7%
COc1ccc(Nc2nc(N)nc(CSc3n[nH]c(-c4ccccc4)n3)n2)cc1	22µM*
O=C(Nc1ccc(NC(=O)c2ccco2)nc1)c1ccccn1	-24%
O=c1c2cnn(-c3ccccc3)c2ncn1Cc1ccco1	?
CCC(=O)Nc1ccc(S(=O)(=O)Nc2ncccn2)cc1	0%
CCCCOC(=O)C1=C(C)Nc2ncnn2C1c1cccc(OC)c1OC (centres undefined)	2%
COc1ccc(CNC(=O)c2sc3nc4c(c(C(F)(F)F)c3c2N)CCC4)cc1	-12%
Cc1cc(C)c2c(N)c(C(=O)N3CCCCCC3)sc2n1	1.6µM*

Reformatted with values ahead of the structure: entries from further up
HPGD inh | smiles
-13% | CCN(CC)S(=O)(=O)N1CCC(C(=O)NC2CCCc3ccccc32)CC1 (centres undefined)
2% | COc1ccc(-n2c(=O)cc(N3CCN(c4ccccc4F)CC3)[nH]c2=O)cc1
